KCNQ2 block = KCNQ2 channel blockers in CHO-K1 cells – cell-based, FluxOR thallium flux, B-score, primary screen (AID 2156); O88943; 20 min; active compounds read low; only compounds with negative scores are shown here; some inactives read as strong as hits; B-score at 10 µM; 310,000 tested, 1.1% active;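 active means fluorescence ratio B-score at most minus 3 library SDs, with starting brightness B-score within 2 library SDs, cut at about -5.5 in these data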
Target sequence (O88943 whole entry, looked up): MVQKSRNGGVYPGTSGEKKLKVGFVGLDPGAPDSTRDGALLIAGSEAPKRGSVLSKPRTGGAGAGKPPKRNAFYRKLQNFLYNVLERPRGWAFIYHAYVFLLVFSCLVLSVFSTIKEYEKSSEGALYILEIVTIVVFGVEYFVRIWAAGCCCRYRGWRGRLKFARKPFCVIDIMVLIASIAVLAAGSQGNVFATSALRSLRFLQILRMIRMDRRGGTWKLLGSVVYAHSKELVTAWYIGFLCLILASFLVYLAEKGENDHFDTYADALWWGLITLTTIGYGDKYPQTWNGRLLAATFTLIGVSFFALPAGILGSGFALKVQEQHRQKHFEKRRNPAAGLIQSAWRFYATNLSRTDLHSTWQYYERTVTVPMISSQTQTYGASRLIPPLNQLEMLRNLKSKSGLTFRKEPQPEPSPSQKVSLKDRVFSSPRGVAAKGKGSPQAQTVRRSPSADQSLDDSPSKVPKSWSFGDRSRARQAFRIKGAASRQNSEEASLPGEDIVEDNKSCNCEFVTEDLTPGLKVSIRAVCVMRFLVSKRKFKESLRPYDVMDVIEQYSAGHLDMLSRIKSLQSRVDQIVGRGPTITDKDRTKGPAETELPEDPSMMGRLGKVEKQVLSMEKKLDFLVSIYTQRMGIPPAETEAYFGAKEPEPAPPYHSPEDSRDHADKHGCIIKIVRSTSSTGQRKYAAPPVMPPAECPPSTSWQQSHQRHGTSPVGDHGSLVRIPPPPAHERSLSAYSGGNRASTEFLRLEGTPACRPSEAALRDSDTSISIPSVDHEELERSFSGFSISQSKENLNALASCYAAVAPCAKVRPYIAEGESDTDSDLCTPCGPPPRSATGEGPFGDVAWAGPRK
KCNQ2 block baseline = second read-out of KCNQ2 block, no call of its own (marks repeat the call); B-score; measured here: initial fluorescence intensity artifact check;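 brightness before thallium and not channel activity; 0 = typical well and far values either way flag optical interference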
Numbers without * were called inactive; i = inactive; & = joins results of further samples. These rows are one share of the data; rates above refer to the full screens.

SMILES	KCNQ2 block	KCNQ2 block baseline
Cc1ccc(C(=O)CN(C(=O)c2ccc(Cl)c(Cl)c2)N2C(=O)C3C4C=CC(C4)C3C2=O)cc1 (stereo not given)	i	0.05
CC(C)OCCCN1C=C2C(=O)C(C)(OC(=O)CCc3ccccc3)C(=O)C=C2C=C1c1ccc(C#N)cc1 (stereo not given)	i	-1
CCOC(=O)COc1ccc(Br)cc1/C=C/c1[nH]c(=O)[nH]c(=O)c1[N+](=O)[O-]	i	0.59
COc1ccc2[nH]c3c(=O)n(Cc4ccc(C(=O)N5CCCC5)cc4)c(=S)[nH]c3c2c1	i	-0.14
O=c1[nH]c(N/N=C/c2ccccc2Br)nnc1-c1ccccc1	i	-0.34
NS(=O)(=O)c1ccc(CCNC(=O)CCS(=O)(=O)c2ccc(Br)cc2)cc1	i	0.96
O=C(Oc1ccccc1N1C(=O)C2CC=CCC2C1=O)c1ccc(Br)cc1 (stereo not given)	i	2.5
O=C1CC(C(F)(F)F)=NN1	i	-1.9
O=C(NCCCn1ccnc1)C(=O)NCc1ccccc1	i	2.2
Cc1cccn2c(=O)c3cc(C(=O)NCc4ccco4)c(=N)n(C4CCCC4)c3nc12	i	0.71
COc1ccc2c(c1OC)c(=O)n1c3ccc(OC(C)C(=O)NCCN4CCOCC4)cc3c3ccnc2c31 (stereo not given)	i	-3.1
O=C(c1cncc(Br)c1)N1CCN(c2ccc([N+](=O)[O-])cc2)CC1	i	0.63
COC(=O)C(C)SC1=N/C(=C/c2ccc(-n3cncn3)cc2)C(=O)N1 (stereo not given)	i	1.3
Cc1ccc(N(C(=O)c2snc(C(N)=O)c2N)C(C(=O)NCCC(C)C)c2ccco2)cc1 (stereo not given)	i	1.1
O=S(=O)(c1cccc(-c2csc(-c3ccccc3)n2)c1)N1CCOCC1	i	-0.11
Cc1ccc(N=C2NC(=O)c3cccc([N+](=O)[O-])c32)cc1	i	-1.8
CCOC(=O)C1=C(CS(=O)(=O)c2ccc(Cl)cc2)NC(=O)NC1c1ccc(O)c(OC)c1 (stereo not given)	i	-0.6
COc1ccc(/C=N/Nc2cc(C)nc3ccccc23)cc1	i	-0.08
Cc1ccc(C(=O)Nc2nc(C)c(C)s2)o1	i	-1.1
COC(=O)C(Cc1ccccc1)NC(=O)COc1ccc(C(C)(C)C)cc1 (stereo not given)	-5.6*	-0.3*
CCOC(=O)c1c(NC2=NS(=O)(=O)c3ccccc32)sc2c1CCCCC2	i	0.8
O=C1c2ccccc2NC(c2ccccc2O)N1NS(=O)(=O)c1ccccc1 (stereo not given)	i	-0.41
CC(C)(C)[C@@H]1C=C(C(=O)O)O[C@H](OCc2ccc(CO)cc2)C1	i	0.17
COc1ccc(N2CCN(c3cnc4ccccc4n3)CC2)cc1	i	-0.38
CC(=O)Nc1ccc(NC(=O)C(=O)c2cn(CC(=O)N3CCCC3)c3ccccc23)cc1	i	-1.5
Cc1ccc(CNc2oc(COc3ccccc3Cl)nc2C#N)cc1	i	0.65
Cc1nnsc1C(=O)NNS(=O)(=O)c1cc(C(F)(F)F)cc(C(F)(F)F)c1	i	0.13
Cc1nc(C)c(CCNC(=O)c2ccccc2Br)s1	i	0.68
c1ccc(-c2ccccc2-c2nc(-c3ccncc3)no2)cc1	i	-0.73
CC1(c2ccc(OC(F)F)cc2)NC(=O)N(CC(=O)Nc2ccc(S(N)(=O)=O)cc2)C1=O (stereo not given)	i	1.6
Cc1occc1C(=O)NNC1=CC(=O)CC(C)(C)C1	i	0.44
CC1=C(C(=O)OCc2ccccc2)C(c2ccccc2OC(F)F)NC(=O)N1 (stereo not given)	i	2.6
CCOC(=O)c1c(CN2CCC(C)CC2)oc2ccc(OC)cc12	i	-0.03
COc1ccc(-n2c3nc4ccccc4nc3c3c(=N)oc(C)nc32)cc1	i	0.19
NC(=O)CC(NC(=O)c1cccc(Br)c1)c1ccc(N2CCN(c3ccc(F)cc3)CC2)c([N+](=O)[O-])c1 (stereo not given)	i	-1.3
C[N+]1(CCn2ccc3ccccc32)CCCCC1	i	1.3
COc1ccc(NC(=O)CN2C(=O)COc3ccc(S(=O)(=O)N4CCOCC4)cc32)cc1Cl	i	-0.43
CC(=O)c1c(COC(=O)c2ccco2)nc2ccccc2[n+]1[O-]	i	0.2
CC(C)(Cc1ccc(O)cc1)NC(=O)SCc1ccccc1	i	0.82
Cc1cccc(C(=O)NCC(=O)Nc2ccncc2)c1	i	-0.37
Nn1c(SCc2cccc(Br)c2)nnc1-c1cccnc1	i	0.43
Cc1cc2nnc(SC3CCCCN(C(=O)c4ccc(F)cc4)C3=O)n2c2ccccc12 (stereo not given)	i	-1.6
Cc1cc(O)ccc1N/C=C(\C#N)c1nc2ccccc2o1	i	1.9
Nc1ccc(Cl)c(NC(=O)c2cccs2)c1	i	-0.33
Fc1ccccc1CSc1ncnc2sc3c(c12)CCCC3	i	1.5
Cc1cc(=O)n2[nH]c(-c3ccccc3Cl)cc2n1	i	0.11
O=C(COC(=O)[C@@H]1CC(O)CN1S(=O)(=O)c1ccc2c(c1)OCCO2)Nc1ccccc1F (stereo not given in full)	i	0.37
CCOC(=O)/C=C1\CN(Cc2cc(OC)c(OC)c(OC)c2)S(=O)(=O)c2ccc(C(F)(F)F)cc21	i	-1.4
CN(C)c1ccnc(C(=O)O)c1	i	0.02
CSCC[C@H](NC(=O)OC(C)(C)C)c1nnc(SCc2ccc(F)cc2)o1	i	-0.95
COc1ccc(CCNC(=O)CN(c2ccc(OC)cc2)S(C)(=O)=O)cc1	i	1.1
COc1ccc(OCC(O)CN(C2CCCCC2)C2CCCCC2)cc1 (stereo not given)	i	0.78
O=C(CSc1nc(-c2ccco2)cc(C(F)(F)F)n1)NCCc1ccccc1	i	0.16
O=C(NNc1c2ccccc2nc2ccccc12)c1ccc(O)cc1O	i	0.38
CCCCN(CC)CCCNC(=O)c1cn(CC)c2ccc(S(=O)(=O)N3CCc4ccccc4C3)cc2c1=O	i	1.5
Cc1ccc2oc(C(=O)NCC(c3ccco3)N3CCCC3)c(C)c2c1 (stereo not given)	i	-0.01
COc1ccc(/C=C2\SC(=S)N(CCC(=O)N(CCO)Cc3ccccc3)C2=O)cc1OC	i	2.2
COc1cccc(CNn2c(-c3cccc(C)c3)nc3ccccc3c2=O)c1O	i	-1.8
Cc1cc(C)c2oc(-c3ccc(Cl)c(NC(=O)c4ccc(C#N)cc4F)c3)nc2c1	i	-2.3
Cc1ccc(C)c(NC(=O)CCc2nnc3ccc(NCc4ccco4)nn23)c1	i	0.24

Carrying on.
SMILES	KCNQ2 block	KCNQ2 block baseline
Cc1ccc(S(=O)(=O)NCc2ccccc2)cc1C(=O)NCC(C)(C)N1CCOCC1	i	1.7
CCCn1c(SCC(=O)N2CCOCC2)nnc1-c1ccncc1	i	1.7
COc1ccc(CNS(=O)(=O)c2ccc3c(c2)N(C(C)=O)CC(C)S3)cc1 (stereo not given)	i	1.3
N=c1sccn1CC(=O)Nc1ccc([N+](=O)[O-])cc1Cl	i	0.07
COc1ccc(NC(=O)c2cccc3cccnc23)cc1S(N)(=O)=O	i	0.53
C#CCN1C(=O)C(O)(CC(=O)c2ccc(OC)c(OC)c2)c2ccccc21 (stereo not given)	i	1.9
CN1C2CCC1CC(NC(=O)CSCc1ccc(Cl)cc1Cl)C2 (stereo not given)	i	-0.47
O=C(Nc1nccs1)C1CCCCN1S(=O)(=O)c1ccccc1 (stereo not given)	i	0.71
COc1ccc(CNC2CC(C)N(C)CC2C)cc1OC (stereo not given)	i	-0.41
NCC(=O)c1cccc2ccc[n+]([O-])c12	i	-2
COc1cc(C)ccc1OCCOCCOc1ccccc1Br	i	-0.48
CCOC(=O)C(C)Sc1ncnc2c1c(-c1ccccc1)cn2-c1ccc(OC)cc1 (stereo not given)	i	-1.6
Cc1ccc(S(=O)(=O)NC2c3cccc4cccc(c34)C2Sc2nc(C)cc(C)n2)cc1 (stereo not given)	-6.4*	0.71*
Cc1cc(C)cc(NC(=O)/C=C/c2ccc([N+](=O)[O-])s2)c1	i	-0.48
CCCCOc1cc(CC2CNC(=O)N2)ccc1OC (stereo not given)	i	0.05
OCCC1CN(CCCn2cccn2)CCN1Cc1ccccc1 (stereo not given)	i	0.62
NCC12CC3CC(C1)CC(CN)(C3)C2	i	0.04
NS(=O)(=O)c1ccc(NC(=O)COC(=O)COc2ccc(Cl)cc2)cc1	i	-1.6
Cc1ccc(S(=O)(=O)N(CC(=O)Nc2cccc(C)c2C)C(=O)N2CCN(C)CC2)cc1	i	1.5
CCOC(=O)Cn1cc(C(=O)c2cccs2)c2ccccc21	i	1.7
O=C(NCC1CCCO1)c1ccc2c(c1)N(Cc1ccccc1)CCS2 (stereo not given)	i	1.1
CC1CCc2nc(NC(=O)C3CC3)sc2C1 (stereo not given)	i	-0.3
CC(CCc1ccccc1)NC(=O)c1cccc(F)c1 (stereo not given)	i	-0.09
O=S(=O)(Nc1cccnc1)c1cccs1	i	-0.02

A second format for 19 compounds above.
Molecule | KCNQ2 block | KCNQ2 block baseline
COc1ccc(CNS(=O)(=O)c2ccc3c(c2)N(C(C)=O)CC(C)S3)cc1 (stereo not given) | i | 1.3
N=c1sccn1CC(=O)Nc1ccc([N+](=O)[O-])cc1Cl | i | 0.07
COc1ccc(NC(=O)c2cccc3cccnc23)cc1S(N)(=O)=O | i | 0.53
C#CCN1C(=O)C(O)(CC(=O)c2ccc(OC)c(OC)c2)c2ccccc21 (stereo not given) | i | 1.9
CN1C2CCC1CC(NC(=O)CSCc1ccc(Cl)cc1Cl)C2 (stereo not given) | i | -0.47
O=C(Nc1nccs1)C1CCCCN1S(=O)(=O)c1ccccc1 (stereo not given) | i | 0.71
COc1ccc(CNC2CC(C)N(C)CC2C)cc1OC (stereo not given) | i | -0.41
NCC(=O)c1cccc2ccc[n+]([O-])c12 | i | -2
COc1cc(C)ccc1OCCOCCOc1ccccc1Br | i | -0.48
CCOC(=O)C(C)Sc1ncnc2c1c(-c1ccccc1)cn2-c1ccc(OC)cc1 (stereo not given) | i | -1.6
Cc1ccc(S(=O)(=O)NC2c3cccc4cccc(c34)C2Sc2nc(C)cc(C)n2)cc1 (stereo not given) | -6.4* | 0.71*
Cc1cc(C)cc(NC(=O)/C=C/c2ccc([N+](=O)[O-])s2)c1 | i | -0.48
CCCCOc1cc(CC2CNC(=O)N2)ccc1OC (stereo not given) | i | 0.05
OCCC1CN(CCCn2cccn2)CCN1Cc1ccccc1 (stereo not given) | i | 0.62
NCC12CC3CC(C1)CC(CN)(C3)C2 | i | 0.04
NS(=O)(=O)c1ccc(NC(=O)COC(=O)COc2ccc(Cl)cc2)cc1 | i | -1.6
Cc1ccc(S(=O)(=O)N(CC(=O)Nc2cccc(C)c2C)C(=O)N2CCN(C)CC2)cc1 | i | 1.5
CCOC(=O)Cn1cc(C(=O)c2cccs2)c2ccccc21 | i | 1.7
O=C(NCC1CCCO1)c1ccc2c(c1)N(Cc1ccccc1)CCS2 (stereo not given) | i | 1.1

Further results follow.
SMILES	KCNQ2 block	KCNQ2 block baseline
Fc1ccc(SCCc2ccncc2)cc1	i	-1.4&1.4
COc1ccc(-c2cc(C(=O)Nc3cccc(Cl)c3)no2)cc1	i	0.13
COC(=O)c1ccccc1NS(=O)(=O)c1ccc2c(c1)oc(=O)n2C	i	-1.2
COc1ccc(C2c3c(-c4ccccc4O)n[nH]c3C(=O)N2CCc2ccc(OC)c(OC)c2)cc1 (stereo not given)	i	-0.25
Cc1cccc(NC(=O)c2ccc(NC(C)c3ccccc3)c([N+](=O)[O-])c2)n1 (stereo not given)	i	-0.04
O=c1c2ccccc2nc(CSc2ncnc3nc[nH]c23)n1-c1cccc(C(F)(F)F)c1	i	-1.2
COc1cccc(CN(C)C(=O)CSC(C)C(=O)Nc2cc(C)on2)c1OC (stereo not given)	i	-1.1
COC(=O)c1sccc1NC(=O)CC1C(=O)NCCN1C(=O)c1ccccc1 (stereo not given)	i	0.71
C=CCN(c1nc(C)c(Br)c(OC)n1)S(=O)(=O)c1ccc(C)cc1	i	0.39
Cc1ccc(C2(COC(=O)C(C)C)CO2)c(OC(=O)C(C)C)c1 (stereo not given)	i	1.6
COc1ccc(NS(=O)(=O)c2ccc(OC)c3ccccc23)cn1	i	-1.2
NNC(=O)c1ncoc1-c1ccc(Cl)cc1	i	-0.57
COc1ccccc1C(C)N(C)Cc1nc(COc2ccccc2)no1 (stereo not given)	i	-0.01
Cc1cc(C)nc(N(C#N)Cc2ccc([N+](=O)[O-])cc2)n1	i	0.15
O=C(NC1CCCC1)c1cc2nc(-c3ccccc3)cc(-c3ccccc3)n2n1	i	1.1
CC12CCC(C/C1=N/NC(=O)Nc1ccccc1)C2(C)C (stereo not given)	i	0.13
CCOC(=O)N1CCN(C(=O)/C(=C/c2ccc(Br)cc2)NC(=O)c2ccc(OC)cc2)CC1	i	1.5
Cc1c(OCC(=O)NC(Cc2c[nH]c3ccc(O)cc23)C(=O)O)ccc2c3c(c(=O)oc12)CCC3 (stereo not given)	i	1.8
O=C(COC(=O)CNC(=O)c1ccc(Cl)cc1Cl)NC(=O)NCc1ccccc1	i	0.1
O=C(c1ccco1)N1CCN(C(c2ccccn2)c2nnnn2C2CCCC2)CC1 (stereo not given)	i	0.17
CCc1ccc(N2CC(O)(c3cccs3)[N+]3=C2SCCC3)cc1 (stereo not given)	i	0.09
Cc1cc(C)c(-n2c(SCCS(=O)(=O)c3ccc(F)cc3)n[nH]c2=O)c(C)c1	i	-0.11
COc1ccc(-c2noc(-c3ccccc3C(=O)Nc3cccnc3)n2)cc1	i	-0.36
O=C(c1cnsn1)N1CCC(CO)(Cc2ccc(Cl)cc2)CC1	i	0.29
Cn1c(=O)oc2cc(S(=O)(=O)NCCC(=O)NC3CCCc4ccccc43)ccc21 (stereo not given)	i	-1.6
CCOC(=O)C1=C(c2ccccc2)N=c2s/c(=C\c3cccc(O)c3)c(=O)n2C1c1cccs1 (stereo not given)	i	-0.91
CCc1ccccc1NC(=O)N[C@H](C(=O)O)C(C)C	i	2.1
Brc1c(CSc2nc3ccccc3s2)nc2ncccn12	i	-0.01

Screening results deposited in PubChem BioAssay by Johns Hopkins Ion Channel Center.
